miR-21 FLuc: qHTS Assay for Modulators of miRNAs and/orActivators of miR-21 | 340,000 tested, under 10 active | Potency, µM (doses to about 38.3 µM), inactives show at the highest dose reporter change, positive = more light | HeLa miR-21 FLuc reporter, luciferase, 48 h | AID 2288, 2010; active = well fitted rising curve with a large enough effect; inconclusive = small, poorly fitted or top-dose-only effect; inactive = no such curve, though single readings can be large or run the other way;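 further: % of control where 0% means no effect; miR-21 action dims this reporter so a rising signal means less miR-21 action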
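HeLa cells stably expressing CMV-driven firefly luciferase with a downstream miR-21 binding sequence, endogenously expressing miR-21, were treated with titrations (up to about 40uM final) for 48 hours at 37 degree Celsius. Luciferase luminescence was read after lysis.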
Rango-impB inh: qHTS Assay for Inhibitors of Rango (Ran-regulated importin-beta cargo) - Importin beta complex formation | 340,000 compounds, 0.031% hits | Potency, µM (top dose mostly 92.2 µM), for inactives: at the highest dose inhibition of complex formation | Importin subunit beta-1 (Homo sapiens), Q14974 | Rango CFP/YFP FRET sensor + importin beta, 45 min; active = rising FRET ratio curve, often small or poorly fitted; inconclusive = mostly compound fluorescence or quenching in the first reads; inactive = flat curves in all reads;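 further: potency means the concentration at half of the fitted maximal effect; 0% = DMSO wells and 100% = buffer wells lacking importin beta; nearly all actives have a fitted effect of over 15% in size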
Target sequence (Q14974 whole entry, looked up): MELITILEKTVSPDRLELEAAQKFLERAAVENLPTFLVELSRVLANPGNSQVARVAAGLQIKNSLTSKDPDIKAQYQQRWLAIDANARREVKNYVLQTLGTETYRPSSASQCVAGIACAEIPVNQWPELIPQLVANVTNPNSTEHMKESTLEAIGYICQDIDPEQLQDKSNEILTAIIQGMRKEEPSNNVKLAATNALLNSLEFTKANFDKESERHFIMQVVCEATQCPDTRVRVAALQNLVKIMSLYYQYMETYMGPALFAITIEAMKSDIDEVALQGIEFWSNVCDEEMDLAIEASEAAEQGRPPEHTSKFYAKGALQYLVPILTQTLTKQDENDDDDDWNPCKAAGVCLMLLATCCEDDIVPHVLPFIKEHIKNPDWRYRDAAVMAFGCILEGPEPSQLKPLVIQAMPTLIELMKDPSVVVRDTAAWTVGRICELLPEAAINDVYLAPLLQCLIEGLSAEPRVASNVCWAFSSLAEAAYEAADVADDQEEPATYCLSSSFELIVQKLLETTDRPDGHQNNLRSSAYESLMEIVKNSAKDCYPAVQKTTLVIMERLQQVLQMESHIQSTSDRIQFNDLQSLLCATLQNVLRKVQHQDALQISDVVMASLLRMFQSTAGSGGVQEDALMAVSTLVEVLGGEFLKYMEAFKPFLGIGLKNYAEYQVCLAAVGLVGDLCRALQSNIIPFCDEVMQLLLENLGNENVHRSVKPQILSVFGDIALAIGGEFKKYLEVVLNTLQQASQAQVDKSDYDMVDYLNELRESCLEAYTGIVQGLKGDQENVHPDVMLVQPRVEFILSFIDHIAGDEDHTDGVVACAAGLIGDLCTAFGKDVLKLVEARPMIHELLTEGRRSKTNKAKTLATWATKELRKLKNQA
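FRET biosensor Rango (snurportin 1 IBB between N-terminal EYFP and C-terminal Cerulean), 50 nM in PBS/1 mM DTT/0.02% Tween-20/0.1% BSA, preincubated 5 min RT with compound; 0.125 microM importin beta added, 45 min RT, CFP/YFP FRET ratio read.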
Rango dissoc inh: qHTS Assay for Inhibitors of RanGTP induced Rango (Ran-regulated importin-beta cargo) - Importin beta complex dissociation; Biochemical FRET Rango-importin beta, RanGTP-induced dissociation; Potency, µM (doses to about 46.1 µM), for inactives: at the highest dose activity change, negative = inhibition; 340,000 compounds, 0.071% hits; active means falling FRET ratio curve, often poorly fitted, with flat reads before Ran was added; inconclusive means other falling curves, or compound fluorescence or quenching; inactive means flat or rising ratio curve;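 further: potency means the concentration at half of the fitted maximal effect; % of control where 0% means no effect; nearly all actives have a fitted effect of over 45% in size; -100% = wells without RanGTP and RCC1; the record marks most hits as doubtful in a second field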
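Rango FRET biosensor (snurportin-1 IBB flanked by N-terminal EYFP and C-terminal CFP10) at 0.1 uM, with 0.25 uM importin beta in PBS, 1mM DTT, 0.02% Tween-20, 0.1% BSA. 0.6 uM Ran, 2mM GTP and 0.2 uM RCC1 were then added for 45 min at room temperature. Inhibition read as loss of FRET rise.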
GLA inh pH 4.5: qHTS Assay for Inhibitors of Human alpha-Galactosidase at pH 4.5 | Alpha-galactosidase A (Homo sapiens), P06280 | purified enzyme, 4-MU-alpha-Gal fluorescence, pH 4.5 | activity change, negative = inhibition, % at 105 µM | 230,000 tested, under 10 active | AID 1467, 2008; inconclusive = small, poorly fitted or top-dose-only inhibition, or a rising curve; inactive = flat fitted curve, though single readings scatter; no compound was filed as active;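 further: 0% = full activity with enzyme and -100% = basal without enzyme; dose as in the result columns while the protocol names 77 µM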
Active calls of the source: *; ? = inconclusive; / = not tested or not shown; & = joins results of further samples; [ ] = another dose, or the depositor's remark.

item	compound	GLA inh pH 4.5	Rango-impB inh	Rango dissoc inh	miR-21 FLuc
1	Cc1ccccc1CC1(CO)CCCN(C(=O)CCC(=O)c2ccccc2)C1 (configuration not stated)	-1	-2.7%	14%	-2%
2	O=Cc1cn(CC(=O)NCC2CCCO2)c2ccccc12 (configuration not stated)	1	0.5%	-4%	-4%
3	COc1cc(/C=C\C(=O)OCn2nnc3ccccc3c2=O)cc(OC)c1OC	-4	0.4%	-11%	6%
4	Cn1nnnc1SCc1csc(C2C(C#N)=C(N)OC3=C2C(=O)CCC3)c1 (configuration not stated)	3[21.1 µM]	2.3%	-9%	-1%
5	CCC(=O)N/N=C(\C)CC(=O)Nc1ccc(Cl)cc1	0	0.0%	20%	-9%
6	O=S(=O)(c1ccc(C2CCCCC2)cc1)N1CCOCC1	5	-0.4%	-8%	-14%
7	O=C(c1ccccc1)c1ccccc1C(=O)N1CCN(Cc2ccccc2F)CC1	/	-0.2%	0%	/
8	O=C(CSc1nc2ncc(Cl)cc2[nH]1)Nc1cccc(F)c1	/	0.0%	4%	21%
9	O=C(O)CC1(CC(=O)NCc2ccc(Cl)cc2)CCCCC1	/	0.1%	-1%	-2%
10	CCCCN1C(=N)N([C@@H](CN2CCC[C@H]2CN2C(N)=NC[C@@H]2Cc2ccccc2)C(C)C)C[C@H]1Cc1ccccc1	/	0.6%	-8%	/

(listing goes on)
item	compound	GLA inh pH 4.5	Rango-impB inh	Rango dissoc inh	miR-21 FLuc
11	CCCCC(=O)Nc1nn(C)c2nc3c(C)cccc3cc12	4	?	?	1%
12	Cc1cc(N/N=C/c2ccccc2)nc(N2CCOCC2)n1	-3	2.1%	-6%	-21%
13	O=C(Nc1ccc(C(=O)N2CCOCC2)cc1)C1CCC1	/	-0.1%	-4%	/
14	CS(=O)(=O)Nc1cccc(-c2cn3c(n2)SCC3)c1	/	?	?	-5%
15	O=C1CSC(c2ccccc2[N+](=O)[O-])N1c1ccc(O)cc1 (configuration not stated)	-7[21.1 µM]	-4.1%	0%	0%
16	Cc1nc(NC(=O)c2ccccc2)sc1-c1csc(Nc2ccc(Cl)cc2)n1	-6	/	/	-5%
17	O=C(CCCC(=O)N(CC(=O)NC1CCCCC1)CC1CCCO1)Nc1ccccn1 (configuration not stated)	-8	-3.2%	-5%	1%
18	O=C(N1CCN(c2ccccn2)CC1)N1c2ccccc2Sc2ccccc21	-11	2.0%	9%	20%
19	O=C1c2ccccc2C(O)(c2ccccc2)N1C1CC1 (configuration not stated)	-5	3.7%	0%	-1%
20	CC1CCCC(C)N1C(=O)COC(=O)COc1ccccc1C#N (configuration not stated)	/	1.0%	-10%	/

Continued.
item	compound	GLA inh pH 4.5	Rango-impB inh	Rango dissoc inh	miR-21 FLuc
21	Cc1ccc(/C=N\Nc2nc3ccc(Cl)cc3[nH]2)o1	2	?	1%	-22%
22	CC(C)NC(=O)c1ccc2c(c1)N(CC(=O)N1CCOCC1)C(=O)C(C)(C)O2	5	3.0%	4%	-3%
23	COC(=O)c1cccc(NC(=O)CSc2nnc(COc3ccccc3)n2C)c1	-5	5.1%	11%	-2%
24	CN(C)c1ccc(NC(=S)NC(=O)/C=C/c2ccco2)cc1	-5	?	-10%	-2%
25	CC(=O)NC(C)c1nc2ccccc2n1Cc1ccccc1F (configuration not stated)	-8	1.1%	-14%	3%
26	CCN1C(=NCc2cccc(Cl)c2)N[C@@H](c2cccc(F)c2)C(C(=O)OC)=C1C	/	2.5%	-4%	-5%&23%
27	COc1ccc(CCNC(=O)C(=O)NCc2ccccc2C)cc1OC	4	0.1%	13%	4%
28	CC(C)N(Cc1ccccc1)C(=S)NC1CCCCC1	-3	2.0%	-1%	-1%
29	O=c1c2c3c(sc2ncn1/N=C/c1ccncc1)CCCC3	6	-1.7%	-7%	2%
30	O=C(Nc1nnc(-c2ccc3c(c2)CCCC3)o1)c1ccc(Cl)cc1Cl	-9	2.4%	27%	1%

Next section.
item	compound	GLA inh pH 4.5	Rango-impB inh	Rango dissoc inh	miR-21 FLuc
31	CCO[C@H]1OC(C(=O)N2CCOCC2)=C[C@@H](c2cn(C(C)=O)c3ccccc23)[C@@H]1CCCO	5	-0.2%	0%	-2%
32	Cc1cc2cc(CN(CCCN3CCOCC3)C(=O)NC3CCCCC3)c(=O)[nH]c2cc1C	-6	?	14%	-1%
33	O=C(CSc1ccc2ccccc2n1)N/N=C/c1ccc(O)cc1	/	-2.3%	16%	4%
34	Cc1ccc(O)c(C2=NCCNC(C(F)(F)C(F)F)=C2)c1	-2	3.2%	27%	9%
35	Cc1cc(C)n(-c2nc3c(c(=O)[nH]c(=O)n3C)n2CCc2ccccc2)n1	-9	2.0%	0%	18%
36	Cc1ccc(N(C(C)C(=O)O)S(=O)(=O)c2c(C)[nH]c(=O)[nH]c2=O)cc1 (configuration not stated)	2	-2.9%	0%	1%
37	COC(=O)c1sccc1S(=O)(=O)Nc1ccc(Cl)cc1	5	0.1%	9%	-7%
38	S=C(Nc1cccc2ccccc12)NC1CCCCC1	0	-5.6%	-12%	-50%
39	COCC(C)Nc1ccc(S(=O)(=O)N2CCCC2)cc1[N+](=O)[O-] (configuration not stated)	0	0.2%	-2%	-11%
40	CCCCc1ccc(C(=O)NC(C(=O)O)C(C)C)cc1 (configuration not stated)	7	-3.3%	-9%	-17%

Two records picked at random from those above, as already listed:
item	compound	GLA inh pH 4.5	Rango-impB inh	Rango dissoc inh	miR-21 FLuc
29	O=c1c2c3c(sc2ncn1/N=C/c1ccncc1)CCCC3	6	-1.7%	-7%	2%
16	Cc1nc(NC(=O)c2ccccc2)sc1-c1csc(Nc2ccc(Cl)cc2)n1	-6	/	/	-5%

Carrying on.
item	compound	GLA inh pH 4.5	Rango-impB inh	Rango dissoc inh	miR-21 FLuc
41	COC(=O)c1ccc(C(=O)OC)c(NC(=S)N2CCCCC2)c1	-6	?	-10%	-3%
42	O=C(CN1CCN(C2CCCCC2)CC1)Nc1ccccc1N1CCCCC1	-18	-1.8%	-1%	-8%
43	Cc1nn(-c2ccccc2)c(C)c1C(=O)OCC(N)=O	3	-3.5%	9%	-8%
44	CC(C)c1ccccc1OCC(=O)NN1C(=O)c2ccccc2C1=O	5	2.7%	19%	4%
45	Cc1ccc(-c2csc(NCCn3c(C)nc4cc(C(F)(F)F)ccc43)n2)cc1	/	-1.4%	10%	/
46	O=C(Nc1nc(-c2ccc(-c3ccccc3)cc2)cs1)C1=COCCO1	8	0.9%	-6%	-23%
47	O=C(Cn1ccc2ccccc2c1=O)NCCC(=O)Nc1ccc(F)cc1F	/	-0.1%	-11%	0%&-5%
48	COc1ccc(O)c(-c2[nH]ncc2C(=O)c2ccccc2)c1	4	-3.1%	2%	22%
49	COC(=O)c1cccc(NC(=O)C(C)N2C(=O)c3ccccc3C2=O)c1 (configuration not stated)	-3	-0.8%	-10%	-5%
50	CCc1ccc(NC(=O)c2cc(C)on2)cc1	-5	-5.5%	1%	-24%

Sorted by value in Rango dissoc inh (rising): three from the list above
| # | SMILES | GLA inh pH 4.5 | Rango-impB inh | Rango dissoc inh | miR-21 FLuc |
| --- | --- | --- | --- | --- | --- |
| 50 | CCc1ccc(NC(=O)c2cc(C)on2)cc1 | -5 | -5.5% | 1% | -24% |
| 43 | Cc1nn(-c2ccccc2)c(C)c1C(=O)OCC(N)=O | 3 | -3.5% | 9% | -8% |
| 45 | Cc1ccc(-c2csc(NCCn3c(C)nc4cc(C(F)(F)F)ccc43)n2)cc1 | / | -1.4% | 10% | / |

The list continues:
item	compound	GLA inh pH 4.5	Rango-impB inh	Rango dissoc inh	miR-21 FLuc
51	O=C(CSc1ccc(F)cc1)NC12CC3CC(CC(C3)C1)C2	-1	0.3%	6%	-39%
52	CCN(CC(=O)Nc1c(F)cccc1F)C(=O)Cc1n[nH]c(=O)c2ccccc12	/	-3.0%	-1%	/
53	COc1cccc(OCC(O)CN2CC(C)CC(C)C2)c1 (configuration not stated)	-1	-2.1%	2%	-8%
54	CCc1cccc(OC2OC(CO)C(O)C(O)C2NC(C)=O)c1 (configuration not stated)	/	-0.3%	8%	-5%
55	CCCCC(=O)N(CCOC)c1nnc(-c2ccccc2C)s1	-17	2.5%	11%	-4%
56	Cc1ccc(S(=O)(=O)N2CCN(C(=O)CN3C(=O)NC4(CCCC4)C3=O)CC2)c(C)c1	/	0.0%	-4%	/
57	CS(=O)(=O)N1CCC(C(=O)Nc2ccc(Cl)cc2)CC1	/	0.2%	3%	3%
58	COc1ccc2[nH]c(C)c(CCNC(=S)Nc3cccc(C)c3)c2c1	-6	-2.1%	11%	-2%
59	COc1ccccc1CNc1ncc(-c2ccccc2)n1C	/	4.0%	-3%	-18%
60	O=C(C[C@H]1C/C=C\CC[C@@H](Cc2ccc(F)cc2)C(=O)O[C@H](c2ccccc2)CNC1=O)N[C@H](CO)Cc1ccccc1	/	3.2%	-15%	/

The listing continues:
item	compound	GLA inh pH 4.5	Rango-impB inh	Rango dissoc inh	miR-21 FLuc
61	COc1cc(C(=O)NNC(=O)COc2cccc(F)c2)ccc1OCC(=O)N1CCOCC1	/	0.4%	-9%	/
62	COc1ccc2cc(CN(CC3CCCO3)S(=O)(=O)c3ccccc3)c(=O)[nH]c2c1 (configuration not stated)	2	-2.0%	3%	4%
63	CS(=O)(=O)N1CCC(C(=O)O)CC1	7	-0.4%	3%	0%
64	CC1Cc2ccccc2C(CCc2ccccc2)=N1 (configuration not stated)	/	-3.4%	2%	-6%
65	Cc1ccc(C(c2nnnn2CS(=O)(=O)c2ccc(C)cc2)N2CCC(C)CC2)cc1 (configuration not stated)	-23	-0.8%	3%	0%
66	Cc1ccc(CSc2nc3ccccc3c(=O)n2CCCC(=O)NCc2ccco2)cc1	2	3.4%	2%	-1%
67	CCn1nc(C)c(CNC(=O)c2ccc(OC3CCN(Cc4ccccn4)CC3)cc2)c1C	/	-0.3%	-5%	19%
68	Cc1cc(C)cc(OCC(=O)NCC2CCCO2)c1 (configuration not stated)	-4	1.9%	-8%	-4%
69	O=C(Oc1ccccc1C(=O)Nc1ccccc1)c1ccccc1Br	-10	0.9%	5%	0%
70	CCCCn1c(N)c(N(CC(C)C)C(=O)c2cc3c(s2)CCCCC3)c(=O)[nH]c1=O	/	3.2%	-19%	/

The listing continues:
item	compound	GLA inh pH 4.5	Rango-impB inh	Rango dissoc inh	miR-21 FLuc
71	O=C(CSc1ccc(C(F)(F)F)cc1[N+](=O)[O-])Nc1ccccc1	-14	1.1%	-8%	-22%
72	CN(CCc1ccccn1)C(=O)CCC1CCCN(C(=O)c2ccccn2)C1 (configuration not stated)	6	-0.9%	-6%	0%
73	CCCc1nc2sc3ccccc3c(=O)c2c(=O)n1CCOC	2	/	/	0%
74	CCC1CCCCN1C(=O)CCc1nnc(Cc2cc(OC)ccc2OC)o1 (configuration not stated)	-3	-2.2%	7%	-36%
75	O=C1N[C@@H](Cc2ccccc2)C(=O)N2[C@@H]1C[C@]1(Br)c3ccccc3N(S(=O)(=O)c3ccccc3)[C@H]21	/	0.4%	-5%	/
76	COCCC(=O)N1CCC(Oc2ccc(C(=O)N3CCCC(COC)C3)cc2)CC1 (configuration not stated)	/	1.3%	6%	-6%
77	C=C1CCN([C@@H](CC(C)C)C(=O)N2CCCC2)S(=O)(=O)c2ccccc21	/	-2.4%	-2%	/
78	CCC(C)Sc1nc2c(c(=O)[nH]c(=O)n2C)n1CC(O)COc1cccc2ccccc12 (configuration not stated)	0	-1.5%	6%	-11%
79	Cc1csc(N2CCc3ccccc32)n1	-1	3.5%	8%	-17%
80	CCC1SC(=NC(=O)c2ccc(Cl)c(Cl)c2)NC1=O (configuration not stated)	2	-1.3%	-5%	-19%
81	Cc1cccc(OCC(=O)NCCCNC(=O)c2ccccn2)c1	/	3.3%	-4%	-4%
82	Cc1ccc2[nH]c(O)c(N=NC(=O)C3CC3c3ccccc3)c2c1Br (configuration not stated)	7	0.9%	24%	-3%
83	COc1ccc(C(=O)Nc2ccnn2C2CCN(C(=O)c3cnsn3)CC2)cc1	/	0.8%	9%	-8%

Only part of the results is shown, so the mix of outcomes need not match the whole.
